BJeLR lethal – BJeLR cell viability loss; BJeLR (HRASV12) viability, CellTiter-Glo ATP luminescence, 48 h; reference of the scale not given here; inhibition, % (test concentration not listed); 300,000 compounds, 0.17% hits; AID 1554;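 active means replicate mean above 50%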;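 further: 50 nL library stock added to about 25 µL; numbers are from one replicate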
PrP UTR inh – inhibition of PrP 5' UTR reporter expression | AID 488862 | cell-based PrP 5' UTR mRNA reporter, plate reader | inhibition, % (no concentration beside the values) | 340,000 compounds, 0.35% hits;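 active means every replicate at 50% or more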;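 further: 0 = median of the neutral control wells; tested in H4 reporter cells; numbers are from one replicate; inactives centre near -14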
ugtP null kill – growth inhibition of S. aureus ugtP deletion strain | S. aureus RN4220 ugtP deletion, OD600 growth, 16 h; some inactives read as strong as hits | growth inhibition, % (no concentration beside the values) | 330,000 compounds, 0.54% hits | AID 1259309;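 active means z-score under -3 and OD600 up to 0.15 on both plates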;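 further: plate controls were untreated wells for no effect and antibiotic for full effect; wells of about 80 µL received 100 nL stock; the first replicate is given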
Bead autofluor – counter-screen for toxin protease inhibitors: compound fluorescence; 360,000 compounds, 3.1% hits; fluorescence intensity (concentration not given with the values); compound autofluorescence counterscreen, microsphere flow cytometry; active compounds read high;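 active means at least 3 SD above the mean of all compounds, about 16000 in these data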;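 further: 100 nL of 1 mM stock went into each well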
Sa RN4220 lethal – kills Staphylococcus aureus RN4220; S. aureus RN4220 growth, OD600, 16 h; inhibition, % (no concentration beside the values); 330,000 compounds, 0.33% hits;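 active means z-score of -3 or lower and OD600 up to 0.18 on both plates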;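 further: plate controls were untreated cells for no effect and reference antibiotic for full effect; stock transfer was 100 nL into about 80 µL; one replicate is shown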
Mtb hypoxia rep – Mtb hypoxia fluorescent reporter inhibition | AID 1159583 | M. tuberculosis hypoxia-regulated fluorescent reporter, fluorescence | fluorescence inhibition, % (concentration not given with the values) | 300,000 compounds, 0.1% hits;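 active means 35 to 45% if threefold the growth effect, above 45% if 1.5-fold the growth effect; inactive means the rest, general growth blockers included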;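 further: wells of about 50 µL received 100 nL stock; 0% = vehicle wells and 100% = reference inhibitor wells; whole bacteria with a GFP reporter of the hypoxia response; strong numbers were not always called active; many hits fall short of the cut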
Mtb hypoxia rep growth – further read-out of Mtb hypoxia rep, marked with its call; growth inhibition, %; measured here: M. tuberculosis growth (absorbance);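 0% = vehicle and 100% = reference antibiotic; read after six days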
The depositor's hits bear a star; / = no result given.

Each structure is followed by: BJeLR lethal	ugtP null kill	Mtb hypoxia rep growth	Mtb hypoxia rep	Bead autofluor	PrP UTR inh	Sa RN4220 lethal
1	O=C1C2C3C=CC(C4CC34)C2C(=O)N1c1ccc2c(c1)OCO2 (stereo unspecified)
→ -7.8	13.1	4.1	-1.5	3475	-9.4	9.3
2	CC(=NNC(=S)Nc1ccccc1)C1Cc2ccccc2C(=O)O1 (stereo unspecified)
→ /	6.3	11.4	15.0	/	/	2.7
3	COc1ccccc1NC(=O)c1sc(Cl)nc1C
→ 1.0	0.5	9.5	4.1	3377	-15.2	10.9
4	CCn1c(SCc2ccc(C(=O)Nc3nccs3)cc2)nnc1-c1ccc(NC(C)=O)cc1
→ -0.1	-5.9	9.9	-3.4	3184	-12.7	-5.4
5	Cc1nc2ccc(C(=O)N3CCN(c4ccccc4)CC3)cc2s1
→ 1.9	3.5	3.2	4.7	8902	-16.1	-2.3
6	O=C(C1Cc2ccccc2CN1C(=O)c1ccccc1)N1CCN(c2ccccc2)CC1 (stereo unspecified)
→ 5.1	0.9	3.9	-8.9	4689	-23.5	-3.7
7	CC1C(=O)N2CCCc3cc(NC(=O)CC(C)(C)C)cc1c32 (stereo unspecified)
→ 4.3	1.0	8.4	6.3	5488	-6.6	1.2
8	c1cc2c(cc1CNc1ccc(N3CCOCC3)cc1)OCO2
→ /	0.9	6.8	3.3	3476	-65.2	5.7
9	Cc1ccc(O)c(-c2cc(C(=O)Nc3ccc(S(=O)(=O)Nc4nccc(C)n4)cc3)[nH]n2)c1
→ 2.4	0.9	13.0	8.8	3749	1.1	5.4
10	COc1ccc(CCN=C(N)Nc2nc(C)cc(C)n2)cc1
→ 1.8	8.5	5.2	6.3	4406	-33.1	10.0
11	CC1CCCC(NC(=O)C2CCN(S(=O)(=O)N3CCCCCC3)CC2)C1C (stereo unspecified)
→ -5.9	1.2	-5.8	-4.2	8764	-40.2	-5.2
12	CCOC(=O)c1ccccc1NC(=O)COC(=O)C1CC(=O)N(CCc2ccccc2)C1 (stereo unspecified)
→ -5.8	4.9	6.4	-6.5	4763	-6.9	1.2
13	CCCn1nnnc1-c1cccc(Cl)c1
→ 10.3	3.9	7.0	13.4	20165*	-9.0	5.3
14	O=C(CCC(=O)Nc1ccc(Br)cc1)NN=Cc1ccccc1F
→ /	2.8	9.4	8.5	/	/	4.4
15	COc1cccc(-c2c(C#N)c(SC)nc3cc(C)nn23)c1
→ -3.2	12.8	4.0	-7.6	4496	-3.0	6.3
16	Cc1ccc(C)c(N2CCN(C(=O)C3CCN(c4nc(C)cc(C)n4)CC3)CC2)c1
→ -7.2	0.1	2.6	3.2	9664	6.9	-0.5
17	O=C(Nc1ccon1)Nc1ccc(F)cc1F
→ 2.0	13.7	0.5	6.8	5616	-19.4	6.3
18	O=C(c1cccc(Br)c1)N1CCN(S(=O)(=O)N2CCOCC2)CC1
→ 3.5	4.1	1.5	5.0	3310	-17.7	1.4
19	COC(=O)c1cc(NC(=O)CN2C(=O)C(=O)N(C3CCCC3)C2=O)cc(C(=O)OC)c1
→ /	-7.7	1.9	-9.8	3557	-32.9	-4.0
20	Cc1cc(C)n(-c2cc(Oc3ccccc3)ncn2)n1
→ -16.8	1.4	10.2	5.9	4234	3.6	6.0

Entries 15 through 18 from above:
Each structure is followed by: BJeLR lethal	ugtP null kill	Mtb hypoxia rep growth	Mtb hypoxia rep	Bead autofluor	PrP UTR inh	Sa RN4220 lethal
15	COc1cccc(-c2c(C#N)c(SC)nc3cc(C)nn23)c1
→ -3.2	12.8	4.0	-7.6	4496	-3.0	6.3
16	Cc1ccc(C)c(N2CCN(C(=O)C3CCN(c4nc(C)cc(C)n4)CC3)CC2)c1
→ -7.2	0.1	2.6	3.2	9664	6.9	-0.5
17	O=C(Nc1ccon1)Nc1ccc(F)cc1F
→ 2.0	13.7	0.5	6.8	5616	-19.4	6.3
18	O=C(c1cccc(Br)c1)N1CCN(S(=O)(=O)N2CCOCC2)CC1
→ 3.5	4.1	1.5	5.0	3310	-17.7	1.4

Next records:
Each structure is followed by: BJeLR lethal	ugtP null kill	Mtb hypoxia rep growth	Mtb hypoxia rep	Bead autofluor	PrP UTR inh	Sa RN4220 lethal
21	COc1ccc(/C=C2\SC(=S)N(CCC(=O)Nc3ccccc3C(=O)O)C2=O)cc1
→ 8.1	-3.1	1.6	1.9	3266	7.1	6.0
22	CCCCCCCCNCCS(=O)(=O)NN1CCOCC1
→ /	-0.1	-11.4	-7.2	3165	-2.4	3.7
23	O=C(Nc1cccc(Cl)c1)c1nc[nH]c1C(=O)NCCCCNC(=O)c1[nH]cnc1C(=O)Nc1cccc(Cl)c1
→ /	10.6	5.9	13.1	4121	-14.5	13.3
24	O=C(Nc1cccc(-c2nc3ccccc3[nH]2)c1)c1ccco1
→ 5.0	3.0	7.6	2.9	25261*	-16.6	10.5
25	Clc1ccc2c(NNc3ccccc3Cl)ccnc2c1
→ -9.5	-1.0	5.5	8.5	9067	-14.1	2.5
26	CCOC(=O)c1ccc(CC2S/C(=C(\C#N)C(C)=O)NC2=O)cc1 (stereo unspecified)
→ -0.4	7.5	/	/	3100	-27.6	7.6
27	CCOCCCn1c(=S)[nH]c2cc(C(=O)N3CCN(C4CCCCC4)CC3)ccc2c1=O
→ 0.2	3.5	6.2	-3.7	5822	-7.7	2.7
28	COc1ccc(CNC(=O)C/C(C)=N/NC(=O)c2ccc(OC)cc2OC)cc1
→ -10.1	/	/	/	2841	-2.6	/
29	CCn1cc([N+](=O)[O-])c(C(=O)NCc2ccc(Cl)cc2)n1
→ 7.0	7.9	-3.8	0.7	1941	6.0	-1.5
30	C=CCN(C#N)c1nc(OC)nc(N2CCCC2)n1
→ 4.2	-6.4	4.4	7.0	9373	-26.4	1.8
31	CCn1nnc2cc(C(=O)O)ccc21
→ 3.3	6.2	3.9	-11.9	4506	-19.7	7.1
32	CCn1c(SCC(=O)N2CCCCC2)nc(O)cc1=O
→ -1.3	3.1	/	/	3861	-6.7	0.3
33	Cc1occc1C(=O)NN=C1C2CC3CC(C2)CC1C3
→ -2.7	-7.5	2.7	-5.3	/	-8.5	-0.3
34	Cc1ccccc1C(=O)NC(Oc1ccccc1)C(Cl)(Cl)Cl (stereo unspecified)
→ -0.6	-5.8	2.4	2.9	2587	-10.1	22.1
35	CCN(CCNC(=O)CC1Oc2ccccc2NC1=O)c1ccccc1 (stereo unspecified)
→ -0.9	2.6	/	/	5551	-0.1	-1.7
36	NS(=O)(=O)c1ccc(CCNS(=O)(=O)c2ccc(Cl)cc2)cc1
→ -6.2	12.2	0.4	8.6	3176	-20.1	0.2
37	CC(C)(C)C1COC(=O)C(NC(=O)OCC2c3ccccc3-c3ccccc32)CC=CCC(CC(=O)NCCO)C(=O)N1 (stereo unspecified)
→ /	-0.1	18.3	8.8	/	/	1.0
38	C=CCN1C(c2ccccc2)=CS/C1=C(/C#N)c1nnc(N2CCOCC2)n1-c1ccccc1
→ -3.9	11.1	5.5	9.4	2651	-11.1	1.4
39	CC(=O)c1cccc(NC(=O)C2CC(=O)N(Cc3ccccc3)C2)c1 (stereo unspecified)
→ 3.3	4.6	/	/	2416	-21.8	-0.7
40	NCCc1c[nH]c2ccccc12
→ /	17.0	/	/	4978	2.8	11.8
41	COc1ccc(CC(=O)NN=C(C)c2cccc(NC(=O)C3CC3)c2)cc1
→ /	-7.1	5.9	12.5	/	/	-6.7
42	COc1ccc2c(C)cc(SCC(=O)Nc3cccnc3Cl)nc2c1
→ 0.6	-1.7	14.2	17.1	2110	5.0	2.8
43	O=C(CSc1nnc(-c2ccncc2)n1Cc1ccco1)N1c2ccccc2Sc2ccc(Cl)cc21
→ -2.8	21.1	0.5	15.5	2411	-18.4	14.0
44	Cn1c(=O)[nH]c(=O)c2c1nc(N1CCN(c3cccc(Cl)c3)CC1)n2CCCc1ccccc1
→ -1.2	-5.8	4.7	3.9	/	/	5.6
45	COC(=O)CSc1nnc(-c2ccco2)n1Cc1ccco1
→ -2.5	3.6	3.9	2.4	2864	-75.0	1.7
46	O=C(CC(=O)c1ccccc1)Nc1ccc2c(c1)OCCO2
→ -0.7	-6.6	/	/	2763	3.3	-5.9
47	CC(C)N(Cc1ccccc1)C(=O)COC(=O)c1ccccc1SCC(=O)N1CCCC1
→ -2.7	3.2	1.5	1.0	5179	1.8	4.0
48	CC(C)OC(=O)c1c(NC(=O)c2cnn3c2NC(c2ccccc2)CC3C(F)(F)F)sc2c1CCCC2 (stereo unspecified)
→ -0.6	19.8	/	/	4905	-26.5	-6.8
49	COc1ccc(/C=C/C(=O)O/N=C(\N)c2ccccc2)cc1OC
→ 15.4	-5.8	-5.3	-1.1	7902	-23.2	4.1
50	Cc1cc(NCCN)nc2ccccc12
→ 10.2	/	/	/	2228	-15.2	/
51	Cc1cc(C)n(-c2nc3c(c(=O)[nH]c(=O)n3C)n2Cc2ccccc2)n1
→ -9.6	-4.5	8.8	7.1	3235	-8.3	5.6
52	OCCN(CC#CCn1c2ccccc2c2ccccc21)CCO
→ 10.0	7.7	3.1	3.2	4858	-10.2	5.0
53	O=C(c1ccco1)N1CCN(C(=O)c2cc(-c3ccc(F)cc3)no2)CC1
→ 13.2	8.9	-0.8	2.6	5654	-14.3	3.4
54	O=C(CSc1nccn1Cc1ccccc1)NC1CCCC1
→ -11.7	-2.6	2.4	11.6	5666	-27.6	2.4
55	Cc1ccc(NC(=O)/C=C\C(=O)O)c([N+](=O)[O-])c1
→ 15.0	6.0	3.8	-2.8	2291	1.1	2.1
56	COc1ccc(C2CCN(CC(=O)N(C)C)CC2O)cc1 (stereo unspecified)
→ -3.7	0.0	2.9	6.4	2499	-0.1	6.7
57	Cc1cc(C)cc(C(=O)NCC(=O)OCC(=O)Nc2ccc(C)cc2Br)c1
→ -3.2	-3.5	10.7	3.0	4533	-11.2	2.2
58	O=C(Cc1nnc(NC(=O)c2ccccc2)s1)NN=Cc1ccc(O)c(O)c1
→ /	9.5	-4.0	2.5	/	/	5.3
59	Cc1c(Cl)cccc1NC(=S)N1CCOCC1
→ -5.0	5.0	3.2	-3.7	2124	0.1	4.6
60	COc1ccccc1N1CCN(C(=O)c2ccncc2)CC1
→ -4.0	-2.7	-3.9	-4.7	5110	-5.9	5.2
61	S=c1[nH]nc(-c2ccco2)n1N=C/C=C/c1ccccc1
→ /	-13.3	12.1	6.2	/	/	6.8
62	O=C(Nc1ccc2c(c1)OCCO2)c1cncc(Br)c1
→ -6.3	-2.7	8.1	3.8	8115	-37.4	5.3
63	CC(=O)OC1CCC2C3CCc4cc(O)ccc4C3CC[C@]12C (stereo partly specified)
→ /	3.0	4.9	-1.2	/	/	15.1
64	Cc1nn(C)c(C)c1NC(=O)c1ccc(Br)o1
→ -6.2	3.6	-5.9	-1.1	3722	-8.8	2.9
65	CCCCCC(/C=N/Nc1ccc(S(=O)(=O)N2CCOCC2)cc1[N+](=O)[O-])=C\c1ccccc1
→ -0.7	/	/	/	4254	-28.1	/
66	Cc1nnc(SCCN2C(=O)c3ccccc3C2=O)nc1C
→ -5.0	8.8	2.6	18.1	3912	-41.1	3.5
67	CCc1cccc(CC)c1NC(=S)Nc1ccccc1
→ -2.6	6.7	-7.9	-6.2	2555	-12.0	5.9
68	COc1cccc(C(=O)NC2CCCN(C3Cc4ccccc4C3)C2)c1OC (stereo unspecified)
→ 1.4	-0.4	5.2	4.9	5160	3.4	2.4

Source: PubChem BioAssay
